# Source: PubChem BioAssay (National Center for Advancing Translational Sciences (NCATS))
# Rango-impB inh: Rango-importin beta binding inhibition; Rango CFP/YFP FRET sensor + importin beta, 45 min; Potency, µM (titrated, usually from 92.2 µM), inactives show at the top dose inhibition of complex formation; 0.031% of 340,000 active; Q14974; AID 540263; active = rising FRET ratio curve, often small or poorly fitted; inconclusive = mostly compound fluorescence or quenching in the first reads; inactive = flat curves in all reads;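 further: potency means the concentration at half of the fitted maximal effect; 0% = DMSO wells and 100% = buffer wells lacking importin beta; nearly all actives have a fitted effect of over 15% in size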
# Target sequence (Q14974 whole entry, looked up): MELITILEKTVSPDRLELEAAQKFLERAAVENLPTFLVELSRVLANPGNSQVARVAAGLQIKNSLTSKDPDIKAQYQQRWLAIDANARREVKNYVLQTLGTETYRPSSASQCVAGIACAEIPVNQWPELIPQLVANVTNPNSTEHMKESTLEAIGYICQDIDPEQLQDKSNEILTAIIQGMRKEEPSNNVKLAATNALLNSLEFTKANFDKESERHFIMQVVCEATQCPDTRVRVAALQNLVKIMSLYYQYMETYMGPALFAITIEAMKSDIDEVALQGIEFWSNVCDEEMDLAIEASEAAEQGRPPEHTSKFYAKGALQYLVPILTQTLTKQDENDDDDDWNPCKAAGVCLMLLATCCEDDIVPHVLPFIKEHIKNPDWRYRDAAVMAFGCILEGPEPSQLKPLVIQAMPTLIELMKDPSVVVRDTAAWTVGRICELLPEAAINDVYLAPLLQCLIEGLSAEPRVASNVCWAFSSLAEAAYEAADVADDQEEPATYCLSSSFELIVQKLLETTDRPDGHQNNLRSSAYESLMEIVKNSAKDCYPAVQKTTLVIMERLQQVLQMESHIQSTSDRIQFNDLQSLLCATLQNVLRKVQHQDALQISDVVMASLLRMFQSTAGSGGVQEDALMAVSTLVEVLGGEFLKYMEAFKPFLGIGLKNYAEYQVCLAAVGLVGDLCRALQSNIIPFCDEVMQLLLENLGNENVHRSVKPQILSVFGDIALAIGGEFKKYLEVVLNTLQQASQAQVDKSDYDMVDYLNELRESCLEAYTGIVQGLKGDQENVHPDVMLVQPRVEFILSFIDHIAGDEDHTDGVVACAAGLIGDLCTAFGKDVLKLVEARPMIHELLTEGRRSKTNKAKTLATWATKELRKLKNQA
#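 Inhibition scored from the CFP 486 nm/YFP 530 nm FRET ratio 45 min after adding 0.125 microM importin beta to 50 nM Rango biosensor preincubated 5 min with compound (room temperature, PBS with DTT, Tween-20, BSA). No-importin wells as positive control.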
# GLA inh pH 4.5: inhibitors of human alpha-galactosidase A at pH 4.5; P06280; purified enzyme, 4-MU-alpha-Gal fluorescence, pH 4.5; activity change, negative = inhibition, % at 105 µM; 230,000 tested, under 10 active; inconclusive = small, poorly fitted or top-dose-only inhibition, or a rising curve; inactive = flat fitted curve, though single readings scatter; no compound was filed as active;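 further: 0% = full activity with enzyme and -100% = basal without enzyme; dose as in the result columns while the protocol names 77 µM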
# miR-21 FLuc: raises the signal of a miR-21 reporter. AID 2288. Potency, µM (top dose mostly 38.3 µM), for the others: top-dose reporter change, positive = more light. HeLa miR-21 FLuc reporter, luciferase, 48 h. 340,000 tested, under 10 active; active = well fitted rising curve with a large enough effect; inconclusive = small, poorly fitted or top-dose-only effect; inactive = no such curve, though single readings can be large or run the other way;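 further: % of control where 0% means no effect; miR-21 action dims this reporter so a rising signal means less miR-21 action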
#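 HeLa miR-21-FLuc reporter line, endogenous miR-21; 2000 cells/well in DMEM/10% FBS; compound titration up to ~40uM final, 48 h, 37 degree Celsius; luciferase detection reagent, 15 min lysis, CCD luminescence.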
# Rango release inh: prevents RanGTP from dissociating the Rango-importin beta complex; Biochemical FRET Rango-importin beta, RanGTP-induced dissociation; Potency, µM (series often up to 46.1 µM), without a hit: at the top dose activity change, negative = inhibition; 0.071% of 340,000 active; AID 540253; active means falling FRET ratio curve, often poorly fitted, with flat reads before Ran was added; inconclusive means other falling curves, or compound fluorescence or quenching; inactive means flat or rising ratio curve;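 further: potency means the concentration at half of the fitted maximal effect; % of control where 0% means no effect; nearly all actives have a fitted effect of over 45% in size; -100% = wells without RanGTP and RCC1; the record marks most hits as doubtful in a second field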
#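 Rango FRET biosensor (snurportin-1 IBB flanked by N-terminal EYFP and C-terminal CFP10) at 0.1 uM, with 0.25 uM importin beta in PBS, 1mM DTT, 0.02% Tween-20, 0.1% BSA. 0.6 uM Ran, 2mM GTP and 0.2 uM RCC1 were then added for 45 min at room temperature. Inhibition read as loss of FRET rise.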
# Starred values were filed as active, the others as inactive; ? = inconclusive; . = no result given; & = joins results of further samples. An excerpt (hit frequency here may not be typical).
SMILES,Rango-impB inh,GLA inh pH 4.5,miR-21 FLuc,Rango release inh
NC(=O)c1cccc(S(=O)(=O)N2CCCCC2)c1,-1.3%,2,-8%,10%
Cc1ccc(S(=O)(=O)N2CCN(Cc3ccccc3)CC2)cc1,-1.8%,.,-11%,0%
COC(=O)COc1cccc2c(=O)n(CC(=O)NCc3ccc(F)cc3)ccc12,?,-1,17%,0%
Cc1noc(C)c1S(=O)(=O)Nc1ccc2c(c1)C(=O)N([C@H](C)CO)C[C@H](C)[C@@H](CN(C)S(=O)(=O)c1ccc(F)cc1)O2,-0.9%,.,.,-20%
COc1ccc(OC)c(NC(=O)c2ccc3c(c2)OCO3)c1,?,.,-28%,-3%
CCN(CC(=O)Nc1ccc(OC)c(OC)c1)CC(=O)Nc1ccccc1C(F)(F)F,-3.0%,.,-2%,18%
Cn1nc(C(=O)NNC(=O)c2ccc(Cl)cc2)ccc1=O,3.5%,.,.,14%
CC(C)N(CCc1ccncc1)C(=O)Nc1ccc(Cl)c(Cl)c1,-1.6%,10,-1%,10%
Cc1ccc(C(C(=O)NC2CCCCC2)N(Cc2ccccc2)C(=O)Cc2c[nH]c3ccccc23)o1 (stereo not given),2.5%,-2,28%,-11%
Cc1cccc(C(=O)NC2CCN(S(=O)(=O)c3ccccc3F)CC2)c1,-1.0%,.,1%,-2%
Cc1nc(N2CCN(Cc3ccc(Cl)cc3)CC2)c2oc3ccccc3c2n1,-0.5%,-13,9%,5%
CCCc1nnc(SCC(=O)N2CCCC(C)C2)n1CCOC (stereo not given),3.4%,9,1%,-1%
COCC(C)NC(=O)CCS(=O)(=O)c1nc(-c2ccc(OC)cc2)cc(C(F)(F)F)n1 (stereo not given),5.9%,-1,-10%,38%
CCCCCOC(=O)C1C(c2ccccc2)C(C(=O)O)C1c1ccccc1 (stereo not given),2.5%,1,-11%,1%
CCOC(=O)/C(C#N)=C/Nc1ccccc1NS(=O)(=O)c1cccc(C(C)=O)c1,-0.7%,-9,0%,11%
Cc1cc2c(N=O)c(NO)ccc2[nH]1,?,3,?,-14%
COc1ccc([C@H]2CC(=O)C=C(c3ccc(Cl)c(F)c3)C2)cc1,-0.9%,.,.,3%
C=C[C@@H]1c2c(F)cccc2N(S(=O)(=O)c2ccc(C)cc2)[C@H](c2ccc(OC(C)=O)cc2)C1(C#N)C#N,0.6%,.,.,2%
Cc1ccccc1C(=O)Nc1ccc(Br)c(C)n1,1.5%,-3,-42%,-12%
CCc1ccc(CNCc2cccnc2)cc1,-1.5%,-12,-11%,1%
CCc1ccc2[nH]c(=O)c(CN(Cc3ccco3)C(=S)NCC3CCCO3)cc2c1 (stereo not given),0.6%,3,-17%,3%
O=C(COC(=O)Cc1ccc(S(=O)(=O)N2CCCCC2)s1)Nc1ccc2c(c1)OCO2,1.7%,7,8%,-4%
CC(CCC(=O)O)C1CC[C@H]2C3CCC4CC(=O)CCC4(C)[C@H]3CC(=O)C12C (stereo not given in full),-0.2%,.,0%,5%
CS(=O)(=O)Nc1ccc(C(=O)CSc2nnc(C3CC3)n2C2CC2)cc1,-0.3%,.,.,2%
COc1ccc(CNC(=O)CN(C(=O)c2csnn2)c2cccc(C(C)=O)c2)cc1,-2.6%,.,1%,-5%
O=C(O)c1cc(NC(=O)c2ccc3c(c2)C(=O)N(Cc2cccnc2)C3=O)cc(C(=O)O)c1,-2.9%,.,1%,6%
CCOc1ccccc1N(C(=O)Cn1nnnc1-c1ccc(C)o1)C(CC)C(=O)NC(C)(C)C (stereo not given),-0.2%,-6,-2%,-7%
O=C1Nc2ncccc2OC1CCO (stereo not given),6.4%,-2,-3%,-3%
COc1ccc2c(c1)OC[C@H]1[C@@H]2N2C(=O)[C@@H](C)NC(=O)[C@@]2(C)[C@H]1c1ccccc1,-0.2%,.,.,1%
Cc1c(C(=O)OCCOc2ccc(Br)cc2)sc(=S)n1C,-2.3%,-5,0%,-13%
Cc1ccc([N+](=O)[O-])cc1S(=O)(=O)Nc1ccc(OCC(=O)N2CCOCC2)cc1,0.0%,.,0%,-2%
CC(C)CCNC(=O)c1onc(CSc2ccc(F)c(F)c2)c1C(=O)NCCC(C)C,0.3%,-3,-4%,8%
CC(C)CCNC(=O)CN(C(=O)CCC(=O)Nc1ccccn1)c1ccc2c(c1)OCO2,-1.8%,2,-6%,-20%
CC1CCCN(C(=O)C2CCN(S(=O)(=O)c3ccccc3)CC2)C1 (stereo not given),5.7%,.,.,-13%
C=CCNC(=O)Nc1ccc(Cl)cn1,0.4%,3,-8%,-1%
O=C(COc1cccc2c1CCN(Cc1ccc(Cl)cc1)C2=O)N1CCOCC1,-3.5%,5,9%,-5%
CCCc1cc(=O)[nH]c(SCC(=O)c2c(N)n(CC(C)C)c(=O)n(C)c2=O)n1,-0.6%,.,.,-5%
COc1cccc(NC(=O)OCCN2CCN(Cc3ccccc3)CCC2=O)c1,0.1%,-3&-1,-15%,14%
Cc1ccc2cc(C)c(N3CCN(c4ccc(F)cc4)CC3)nc2c1,?,.,-4%,0%
Cc1ccc(NC(=O)Cn2nnc(C(=O)NCc3cccs3)c2N)cc1,-2.0%,5,-10%,-11%
NC(N)=NC1=NC(=O)/C(=C/c2ccccc2-n2cccn2)S1,0.4%,-4,-1%,3%
CN(C)CCOc1ccc2c(c1)Sc1ccccc1CC2=O,4.2%,2,-8%,-15%
O=C(NCCN1CCOCC1)c1cn(-c2ccccc2)nc1-c1cccs1,5.3%,0,-5%,10%
Cc1[nH]c2ccccc2c1C(=O)CN1CCCC(C)C1 (stereo not given),-1.9%,.,-4%,-3%
Nn1c(SCC(=O)NC2CCCCC2)nnc1-c1ccccc1F,-0.7%,.,.,-14%
CC(C)OCCCNC(=S)NNC(=O)C(c1ccccc1)c1ccccc1,2.4%,-16,7%,10%
O=C1c2nc3cc(-c4ccco4)[nH]n3c(=O)c2CN1C1CCCCC1,0.0%,11,-16%,16%
CCCCC(=O)NC1(C(F)(F)F)C(=O)Nc2c1c(=O)n(C)c(=O)n2C (stereo not given),-6.2%,4,-6%,41%
O=C(Nc1ccn(Cc2ccccc2F)n1)c1ccc(COc2ccc(Br)cc2)cc1,4.3%,7,12%,7%
Clc1ccc(NC2(c3nnnn3C3CCCCC3)CCCCC2)cc1,3.9%,-1,-3%,2%
Cc1ccc(C)c(S(=O)(=O)N2CCCOC2CNC(=O)C(=O)NCc2ccc3c(c2)OCO3)c1 (stereo not given),-2.9%,.,3%,-12%
O=C(O)CC/C(=N/NC(=O)CNC(=O)C(c1ccccc1)c1ccccc1)c1ccccc1,-2.6%,-2,0%,20%
COc1cccc2cc(C(C)N(CCCN3CCOCC3)C(=S)Nc3cccc(C)c3)oc12 (stereo not given),-5.4%,-10,1%,18%
CC(C)(C)OC(=O)C[C@H]1C/C=C\C[C@@H](CC(=O)N(CCO)Cc2ccccc2)C(=O)N[C@H](Cc2c[nH]c3ccccc23)COC1=O,-3.7%,.,.,0%
Cc1cccc(NC(=O)c2ccc([N+](=O)[O-])o2)c1,1.1%,5,16%,10%
Cc1cc(C)c2sc(N(CCCN(C)C)C(=O)c3ccc(S(=O)(=O)N(C)C4CCCCC4)cc3)nc2c1,3.4%,.,.,9%
COc1ccc(C)cc1NC(=O)CCS(=O)(=O)c1cccc2nonc12,6.9%,16,-1%,1%
Fc1ccc(CSc2ncnc3c2oc2ccccc23)cc1,9.4%,0,-4%,16%
CCCCNC(=O)N(C)c1nncnc1C(=O)NC,-1.1%,2,1%,-7%
Cc1nnc2n(-c3ccccc3)c(=O)c3c4c(sc3n12)CCCC4,3.3%,0,-21%,-12%

# Some of these compounds in order of molecular weight, falling.
SMILES,Rango-impB inh,GLA inh pH 4.5,miR-21 FLuc,Rango release inh
CC(C)(C)OC(=O)C[C@H]1C/C=C\C[C@@H](CC(=O)N(CCO)Cc2ccccc2)C(=O)N[C@H](Cc2c[nH]c3ccccc23)COC1=O,-3.7%,.,.,0%
Cc1cc(C)c2sc(N(CCCN(C)C)C(=O)c3ccc(S(=O)(=O)N(C)C4CCCCC4)cc3)nc2c1,3.4%,.,.,9%
O=C(Nc1ccn(Cc2ccccc2F)n1)c1ccc(COc2ccc(Br)cc2)cc1,4.3%,7,12%,7%
COc1cccc2cc(C(C)N(CCCN3CCOCC3)C(=S)Nc3cccc(C)c3)oc12 (stereo not given),-5.4%,-10,1%,18%
O=C(O)CC/C(=N/NC(=O)CNC(=O)C(c1ccccc1)c1ccccc1)c1ccccc1,-2.6%,-2,0%,20%
CC(C)OCCCNC(=S)NNC(=O)C(c1ccccc1)c1ccccc1,2.4%,-16,7%,10%
O=C(NCCN1CCOCC1)c1cn(-c2ccccc2)nc1-c1cccs1,5.3%,0,-5%,10%
COc1ccc(C)cc1NC(=O)CCS(=O)(=O)c1cccc2nonc12,6.9%,16,-1%,1%
CCCCC(=O)NC1(C(F)(F)F)C(=O)Nc2c1c(=O)n(C)c(=O)n2C (stereo not given),-6.2%,4,-6%,41%
Nn1c(SCC(=O)NC2CCCCC2)nnc1-c1ccccc1F,-0.7%,.,.,-14%
O=C1c2nc3cc(-c4ccco4)[nH]n3c(=O)c2CN1C1CCCCC1,0.0%,11,-16%,16%
Cc1nnc2n(-c3ccccc3)c(=O)c3c4c(sc3n12)CCCC4,3.3%,0,-21%,-12%
NC(N)=NC1=NC(=O)/C(=C/c2ccccc2-n2cccn2)S1,0.4%,-4,-1%,3%
Fc1ccc(CSc2ncnc3c2oc2ccccc23)cc1,9.4%,0,-4%,16%
Cc1[nH]c2ccccc2c1C(=O)CN1CCCC(C)C1 (stereo not given),-1.9%,.,-4%,-3%
CCCCNC(=O)N(C)c1nncnc1C(=O)NC,-1.1%,2,1%,-7%
Cc1cccc(NC(=O)c2ccc([N+](=O)[O-])o2)c1,1.1%,5,16%,10%

# Next section:
SMILES,Rango-impB inh,GLA inh pH 4.5,miR-21 FLuc,Rango release inh
CCCCOc1ccccc1C1C(C(N)=O)=C(C)Nc2nnnn21 (stereo not given),-0.9%,-2,2%,4%
CC(C)(C)OC(=O)C[C@@H]1C/C=C\C[C@H](CC(=O)N[C@H](CO)Cc2ccccc2)C(=O)N2CCC[C@H]2COC1=O,1.5%,.,.,-3%
CCOc1cc(/C=C2/C(=O)ON=C2C)ccc1OCc1ccccc1F,-0.9%,3,-15%,5%
CC(=O)Nc1ccc(NC(=O)C(C)OC(=O)C2CCC2)cc1 (stereo not given),2.2%,.,.,8%
CCCCCC(=O)NNC(=O)c1c(O)c2ccccc2n(CC)c1=O,4.1%,8,-37%,-9%
Cc1ccc(SCC(=O)OCC(=O)NC(C)c2ccc(F)cc2)cc1 (stereo not given),-1.2%,.,.,-6%
O=C(NCCc1ccccc1)c1ccco1,0.3%,-6,-48%,-4%
Cc1ccc(C(OCC(C)(C)C[N+](C)(C)C)c2ccccc2)cc1 (stereo not given),0.2%,1,23%,-1%
O=C(c1ccc(Br)cc1)N1CCCc2ccccc21,2.4%,.,-11%,2%
CC1=CCC2C(=O)N(Cc3ccccc3)C(=O)C2C1 (stereo not given),-1.6%,6,-1%,0%
O=[N+]([O-])c1ccc2nc(NN=Cc3ccc(O)cc3)sc2c1,?,.,.,?
O=C(Nc1cccc(S(=O)(=O)NC2=NCCC2)c1)c1ccc(C(F)(F)F)cc1,-1.2%,.,.,10%
